A1 apoptosis 2 – A1 inhibition read as caspase activation. AID 2465. caspase activation, % (concentration not given with the values). 24,000 tested, under 10 active. MEF A1-2A-BIM cells, caspase-Glo luminescence, 3 h; percent of clofoctol response, DMSO zero; in the data active = caspase activation above about 5.9%;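 also: wells of about 30 µL received 50 nL stock; the first replicate is given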
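System: mouse embryonic fibroblasts co-expressing A1 and BIM (A1-2A-BIM), primed for A1 dependence; amount: 2500 cells/well; doses: 50 nL pinned compound; schedule: cells settled overnight, compound exposure 3 h at 37 °C, 5% CO2; detection: Caspase-Glo 3/7 luminescence, 1 h at room temperature; read-out: Caspase-3/7 activation, seen as rise in luminescence signal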
Numbers without * were called inactive.

SMILES	A1 apoptosis 2
C[C@H]1CN([C@@H](C)CO)C(=O)c2cc(NC(=O)Nc3ccc4c(c3)OCO4)ccc2O[C@@H]1CN(C)C(=O)Nc1ccc(C(F)(F)F)cc1	-0.2
C[C@H](CO)N1C[C@H](C)[C@@H](CN(C)C(=O)Cc2ccccc2)OCCCC[C@H](C)Oc2ccc(NS(=O)(=O)c3cn(C)cn3)cc2C1=O	0.0
C[C@@H]1CN([C@H](C)CO)C(=O)c2cccc(NC(=O)c3nc4ccccc4s3)c2O[C@H]1CN(C)CC1CC1	0.4
C[C@@H]1CN([C@H](C)CO)C(=O)c2cccc(NC(=O)c3cnccn3)c2O[C@H]1CN(C)Cc1ccc(C(F)(F)F)cc1	-0.2
C[C@H](CO)N1C[C@H](C)[C@H](CN(C)CC2CCCCC2)Oc2ccc(NC(=O)CCCCCC(=O)Nc3ccccc3N)cc2CC1=O	0.9
C[C@@H]1CCCCO[C@H](CN(C)C(=O)CCC(F)(F)F)[C@@H](C)CN([C@@H](C)CO)C(=O)c2cc(NS(C)(=O)=O)ccc2O1	0.0
COc1ccc(NC(=O)Nc2ccc3c(c2)C(=O)N([C@H](C)CO)C[C@H](C)[C@@H](CN(C)S(=O)(=O)c2ccc(OC)cc2)OCCCC[C@@H](C)O3)cc1	0.5
CC(C)NC(=O)Nc1ccc2c(c1)C(=O)N([C@H](C)CO)C[C@@H](C)[C@H](CN(C)S(=O)(=O)c1ccccc1)OCCCC[C@H](C)O2	-0.3
CNC[C@@H]1Oc2ccc(NC(=O)Nc3ccc(OC)cc3)cc2CC(=O)N([C@H](C)CO)C[C@H]1C	0.5
COc1cccc(OC)c1/C=N/NC(=O)CCCCCC(=O)NO	-0.8
C[C@H](CO)N1C[C@H](C)[C@@H](CN(C)CC2CC2)Oc2c(NS(=O)(=O)c3ccc(Cl)cc3)cccc2C1=O	-0.3
C[C@@H]1CCCCO[C@H](CN(C)C(=O)c2ccncc2)[C@H](C)CN([C@@H](C)CO)C(=O)c2cc(NC(=O)CCC(F)(F)F)ccc2O1	-0.4
O=C(O)C1=C[C@H](c2ccc(Br)cc2)C[C@H](OCCCCO)O1	-1.5
COc1ccc(S(=O)(=O)Nc2ccc3c(c2)CC(=O)N([C@H](C)CO)C[C@H](C)[C@@H](CN(C)CC2CC2)O3)cc1	0.0
C[C@@H]1CN([C@H](C)CO)C(=O)c2cccc(NS(=O)(=O)c3cn(C)cn3)c2O[C@H]1CN(C)Cc1ccc(Oc2ccccc2)cc1	0.0
C[C@@H]1CCCCO[C@H](CN(C)CC2CCCCC2)[C@@H](C)CN([C@H](C)CO)C(=O)c2cc(NS(=O)(=O)c3cn(C)cn3)ccc2O1	1.2
C[C@@H]1CN([C@H](C)CO)C(=O)Cc2cc(NC(=O)Cn3cnnn3)ccc2O[C@H]1CN(C)Cc1ccc2c(c1)OCO2	1.4
C[C@H](CO)N1C[C@H](C)[C@@H](CN(C)C(=O)NC2CCCCC2)Oc2ccc(NC(=O)Nc3ccccc3)cc2C1=O	-2.2
C[C@H](CO)N1C[C@H](C)[C@@H](CN(C)Cc2ccccc2)Oc2ccc(NC(=O)Cn3cnnn3)cc2C1=O	-0.6
C[C@H]1CN([C@@H](C)CO)C(=O)c2cccc(NC(=O)C3CC3)c2O[C@H]1CN(C)CC1CCCCC1	-1.0
C[C@H](CO)N1C[C@H](C)[C@H](CN(C)CC2CC2)Oc2c(NC(=O)Nc3ccc(C(F)(F)F)cc3)cccc2C1=O	1.2
C[C@@H]1CN([C@@H](C)CO)C(=O)c2cc(NS(=O)(=O)c3ccccc3)ccc2O[C@@H]1CN(C)Cc1ccc2c(c1)OCO2	0.1
C[C@@H]1CN([C@@H](C)CO)C(=O)c2cc(NC(=O)C3CCCCC3)ccc2O[C@@H](C)CCCCO[C@@H]1CN(C)C(=O)Nc1ccc(F)cc1	0.3
Cc1noc(C)c1NC(=O)Nc1ccc2c(c1)C(=O)N([C@H](C)CO)C[C@H](C)[C@H](CN(C)C(=O)NC(C)C)OCCCC[C@H](C)O2	0.3
C[C@H]1CN([C@@H](C)CO)C(=O)Cc2cc(NC(=O)Nc3ccccc3)ccc2O[C@@H]1CN(C)CC1CC1	-1.3
Cc1noc(C)c1NC(=O)N(C)C[C@H]1Oc2c(cccc2N(C)C)C(=O)N([C@@H](C)CO)C[C@@H]1C	-0.7
C[C@@H]1CCCCO[C@H](CN(C)CC2CC2)[C@H](C)CN([C@@H](C)CO)C(=O)c2cc(NC(=O)NC3CCCCC3)ccc2O1	-1.5
Cc1ccc(S(=O)(=O)Nc2ccc3c(c2)C(=O)N([C@@H](C)CO)C[C@@H](C)[C@@H](CN(C)S(=O)(=O)c2ccccc2)OCCCC[C@H](C)O3)cc1	-0.3
C[C@H](CO)N1C[C@H](C)[C@@H](CN(C)C(=O)Nc2cccc3ccccc23)Oc2c(NC(=O)C3CC3)cccc2C1=O	0.8
C[C@H](CO)N1C[C@H](C)[C@@H](CN(C)C(=O)C2CCCCC2)OCCCC[C@H](C)Oc2ccc(NC(=O)c3ccncc3)cc2C1=O	-0.4
COc1ccc(CCNC(=O)[C@@H]2c3ccccc3C(=O)N(CC34CC5CC(CC(C5)C3)C4)[C@H]2c2ccc(CO)cc2)cc1	-0.2
C[C@H](CO)N1C[C@H](C)[C@@H](CN(C)Cc2ccc(C(F)(F)F)cc2)Oc2c(NS(C)(=O)=O)cccc2C1=O	0.8
C[C@@H]1CCCCO[C@H](CN(C)C)[C@H](C)CN([C@H](C)CO)C(=O)c2cc(NC(=O)Nc3cccc4ccccc34)ccc2O1	0.8
Cc1noc(C)c1NC(=O)N(C)C[C@H]1Oc2ccc(NC(=O)C3CC3)cc2C(=O)N([C@@H](C)CO)C[C@H]1C	-0.1
C[C@H](CO)N1C[C@H](C)[C@H](CN(C)Cc2ccc(C(=O)O)cc2)Oc2c(NS(C)(=O)=O)cccc2C1=O	-0.4
C[C@H](CO)N1C[C@H](C)[C@H](CN(C)S(=O)(=O)c2cn(C)cn2)Oc2ccc(N(C)C)cc2CC1=O	0.0
COCCCNC(=O)[C@]1(Cc2ccccc2N=[N+]=[N-])N=C(c2ccc(OCCCO)cc2)O[C@@H]1c1ccccc1N=[N+]=[N-]	1.1
C[C@@H]1CN([C@@H](C)CO)C(=O)Cc2cc(NC(=O)Nc3ccc4c(c3)OCO4)ccc2O[C@@H]1CN(C)CC1CCCCC1	-0.5
OCc1ccc(-c2cc[n+](Cc3cc4c(cc3Br)OCO4)cc2)cc1	-0.1
C[C@H]1CN([C@@H](C)CO)C(=O)c2cccc(NC(=O)C3CCCCC3)c2O[C@H]1CN(C)Cc1ccc(Cl)c(Cl)c1	-0.8
CC(C)(C)[C@@H]1C=C(C(=O)N2CCCCCCC2)O[C@H](OCc2ccc(CO)cc2)C1	1.0
C[C@@H]1CN([C@H](C)CO)C(=O)CCCn2nncc2CO[C@H]1CN(C)S(=O)(=O)c1ccc2ccccc2c1	1.7
O=C(CCCCCCC(=O)N/N=C/c1cccnc1Br)NO	0.7
CCCN(C)C[C@@H]1OCCCC[C@@H](C)Oc2ccc(NS(=O)(=O)c3cccs3)cc2C(=O)N([C@H](C)CO)C[C@@H]1C	-1.7
C[C@@H]1CN([C@@H](C)CO)C(=O)c2cc(NC(=O)CCCN(C)C)ccc2O[C@H]1CN(C)Cc1ccncc1	0.3
C[C@@H]1CN([C@@H](C)CO)C(=O)c2cc(NC(=O)C3CCCCC3)ccc2O[C@@H](C)CCCCO[C@@H]1CN(C)C(=O)NC1CCCCC1	0.3
C[C@H]1CCCCO[C@@H](CN(C)C(=O)CCCN(C)C)[C@@H](C)CN([C@@H](C)CO)C(=O)c2cc(NC(=O)Nc3ccc(F)cc3)ccc2O1	0.2
C[C@H](CO)N1C[C@H](C)[C@H](CN(C)C(=O)Nc2ccnc(N3CCOCC3)c2)OCc2cnnn2CCCC1=O	0.2
C[C@@H]1CCCCO[C@@H](CN(C)C(=O)C2CCCCC2)[C@@H](C)CN([C@@H](C)CO)C(=O)c2cc(NS(=O)(=O)c3ccccc3)ccc2O1	0.2
Cc1noc(C)c1NC(=O)N(C)C[C@H]1Oc2ccc(NC(=O)CCN3CCOCC3)cc2CC(=O)N([C@@H](C)CO)C[C@H]1C	-0.2
C[C@H]1CN([C@@H](C)CO)C(=O)Cc2cc(NS(=O)(=O)c3ccc(F)cc3)ccc2O[C@@H]1CN(C)C	0.9
C[C@H](CO)N1C[C@H](C)[C@H](CN(C)C(=O)Nc2ccccc2)Oc2ccc(N(C)C)cc2C1=O	1.0
CC(C)NC(=O)N(C)C[C@H]1OCCCC[C@@H](C)Oc2ccc(NS(=O)(=O)c3cn(C)cn3)cc2C(=O)N([C@H](C)CO)C[C@H]1C	-1.4
C[C@@H]1CN([C@@H](C)CO)C(=O)c2cc(NS(=O)(=O)c3ccc(Cl)cc3)ccc2O[C@@H](C)CCCCO[C@H]1CN(C)C(=O)Cc1ccccc1	0.3
C[C@H]1CN([C@@H](C)CO)C(=O)Cc2cc(NS(=O)(=O)c3cn(C)cn3)ccc2O[C@H]1CN(C)Cc1ccc(Cl)c(Cl)c1	-0.5
C[C@H](CO)N1C[C@H](C)[C@@H](CN(C)Cc2ccccc2)Oc2ccc(NC(=O)Nc3ccc4c(c3)OCO4)cc2C1=O	-0.1
COc1ccc(S(=O)(=O)N(C)C[C@H]2Oc3ccc(NC(=O)Cn4cnnn4)cc3C(=O)N([C@@H](C)CO)C[C@@H]2C)cc1	-0.4
COc1ccc(S(=O)(=O)Nc2ccc3c(c2)C(=O)N([C@H](C)CO)C[C@H](C)[C@@H](CN(C)Cc2ccc(Cl)c(Cl)c2)OCCCC[C@H](C)O3)cc1	-0.4
O=C(CCCCCCC(=O)Nc1ccccc1O)N/N=C/c1ccc(F)cc1	0.0
CCCN(C)C[C@@H]1OCCCC[C@H](C)Oc2ccc(NC(=O)Nc3cccc4ccccc34)cc2C(=O)N([C@H](C)CO)C[C@@H]1C	-0.1

Going on with the list:
SMILES	A1 apoptosis 2
C[C@@H]1CN([C@@H](C)CO)C(=O)Cc2cc(NC(=O)C3CCCCC3)ccc2O[C@H]1CN(C)C(=O)NC1CCCCC1	0.7
COc1ccc(CN(C)C[C@H]2Oc3ccc(NC(=O)Nc4ccc(OC)cc4)cc3C(=O)N([C@H](C)CO)C[C@@H]2C)cc1	0.0
C[C@H](CO)N1C[C@H](C)[C@H](CN(C)C(=O)Nc2ccc(F)cc2)Oc2c(NC(=O)Nc3cccc4ccccc34)cccc2C1=O	0.8
C[C@@H]1CN([C@@H](C)CO)C(=O)Cc2cc(NC(=O)Nc3ccc(F)cc3)ccc2O[C@@H]1CN(C)S(=O)(=O)c1cn(C)cn1	1.1
Cc1noc(C)c1S(=O)(=O)N(C)C[C@H]1Oc2ccc(NS(=O)(=O)c3cn(C)cn3)cc2CC(=O)N([C@H](C)CO)C[C@@H]1C	-0.3
COc1ccc(S(=O)(=O)N(C)C[C@@H]2Oc3ccc(NC(=O)C4CCCCC4)cc3C(=O)N([C@@H](C)CO)C[C@H]2C)cc1	1.2
Cc1noc(C)c1NC(=O)N(C)C[C@@H]1OCCCC[C@@H](C)Oc2ccc(NS(=O)(=O)c3ccc(F)cc3)cc2C(=O)N([C@H](C)CO)C[C@H]1C	0.1
C[C@H](CO)N1C[C@H](C)[C@H](CN(C)C(=O)Cc2ccccc2)OCCCC[C@H](C)Oc2ccc(NS(=O)(=O)c3ccccc3)cc2C1=O	-0.5
Cc1noc(C)c1S(=O)(=O)N(C)C[C@H]1Oc2ccc(NC(=O)CCC(F)(F)F)cc2CC(=O)N([C@@H](C)CO)C[C@@H]1C	0.8
C[C@@H]1CCCCO[C@@H](CN(C)CC2CCCCC2)[C@@H](C)CN([C@@H](C)CO)C(=O)c2cc(NC(=O)Nc3ccc(F)cc3)ccc2O1	-0.3
C[C@@H]1CN([C@H](C)CO)C(=O)c2cccc(NS(C)(=O)=O)c2O[C@H]1CN(C)S(=O)(=O)c1ccc(Cl)cc1	-0.3
C[C@H]1CN([C@@H](C)CO)C(=O)c2cccc(N(C)C)c2O[C@@H]1CN(C)S(=O)(=O)c1ccc(Cl)cc1	-0.6
COc1ccc(S(=O)(=O)N(C)C[C@H]2Oc3c(NS(C)(=O)=O)cccc3C(=O)N([C@@H](C)CO)C[C@@H]2C)cc1	0.1
C[C@H](CO)N1C[C@H](C)[C@@H](CN(C)Cc2ccc(C(F)(F)F)cc2)Oc2c(NC(=O)C3CCCCC3)cccc2C1=O	0.7

This is a subset; count on the stated rates, not on these rows.
